# High-throughput results from PubChem BioAssay.
# Vaccinia mCherry: qHTS for Stage-Specific Inhibitors of Vaccinia Orthopoxvirus: mCherry Reporter Primary qHTS | Vaccinia virus mCherry reporter infection, fluorescence; about a quarter of the inactives have no number | Potency, µM (series often up to 36.5 µM), inactives show at the top dose activity change, negative = inhibition, actives largely listed as inhibitors | 310,000 tested, 0.63% active | AID 720579, 2013; active = well fitted inhibition curve with a large enough effect; inconclusive = small, poorly fitted or top-dose-only effect; inactive = no such curve, though single readings can be large or run the other way; tested in A549 cells; note: nearly all actives have a fitted effect of over 35% in size; inactives centre near -10
# Vaccinia Venus: qHTS for Stage-Specific Inhibitors of Vaccinia Orthopoxvirus: Venus Reporter Primary qHTS; AID 720580, 2013; Potency, µM (doses to about 36.5 µM), for inactives: at the top dose activity change, negative = inhibition, usual class: inhibitors; Vaccinia virus Venus reporter expression, fluorescence; 330,000 tested, 0.46% active; active means well fitted inhibition curve with a large enough effect; inconclusive means small, poorly fitted or top-dose-only effect; inactive means no such curve, though single readings can be large or run the other way; tested in A549 cells; note: nearly all actives have a fitted effect of over 30% in size; inactives centre near -10
# Starred values were filed as active, the others as inactive; i = inactive; ? = inconclusive; · = not tested or not shown; & = joins results of further samples; [ ] = another dose, or the depositor's remark. % is set by controls: 0 for no effect and ±100 for the full control effect; potency is the fitted concentration of half-maximal effect.
# Below each compound – Vaccinia mCherry	Vaccinia Venus
1. CCc1cc2c(=O)c(-c3cnn(-c4ccccc4)c3)coc2c(CN2CCOCC2)c1O
→ -25%	-10%
2. O=C(Nc1ccc(SC(F)F)cc1)C12CCC(CC1)C2
→ i	-23%
3. Cc1nn(Cc2ccccc2)c(Cl)c1C(=O)OCC(=O)NCC1CCCO1 (centres undefined)
→ i	-7%
4. CC1(C)CC2CC(C)(CN2C(=O)CCCN2C(=O)c3ccccc3C2=O)C1 (centres undefined)
→ ·	-22%
5. COc1ccc(C(Nc2ccccn2)c2oc(CO)cc(=O)c2O)cc1 (centres undefined)
→ i	4%
6. CCc1nc2ccc(C(=O)N(CC)CCN(C)C)cn2c1N(C=O)CCC(C)C
→ -3%	9%
7. O=C(O)/C=C\C(=O)N1CCc2ccccc21
→ i	-7%
8. CC(OC(=O)c1n[nH]c2ccccc12)C(=O)Nc1ccccc1[N+](=O)[O-] (centres undefined)
→ -19%	-19%
9. NS(=O)(=O)c1ccc(CCNC(=O)/C=C/c2ccc([N+](=O)[O-])cc2)cc1
→ -14%	-16%
10. CCN(CCCNC(=O)CSc1cc(=O)n(C)c2cc(Cl)ccc12)Cc1ccccc1
→ -7%	-14%
11. O=C(Nc1ccn(-c2ccccc2)n1)c1ccc(Cl)cc1
→ i	-22%
12. Cc1c(C(=O)c2ccc(F)cc2)c2ccccn2c1CCc1ccccn1
→ i	-26%
13. COc1ccc(CN(C)C(=O)CSc2nnc(C3CC3)n2C2CC2)cc1
→ -17%	-22%
14. COc1ccccc1NC(=O)CN1C(=O)C(C)(C)c2ccccc21
→ -11%	3%
15. O=S(=O)(O)CCN1CCOCC1
→ ·	0%
16. O=C1NC[C@H](CCCCN2CCN(CCc3ccccc3)C(=O)C2=O)N(CCc2ccc(O)cc2)C1=O
→ i	0%
17. CCOC(=O)[C@]12CCCC=C1N(Cc1ccco1)C(=O)[C@H](CC(=O)NCc1ccc(OC)c(OC)c1)C2
→ -13%	-7%
18. COC(=O)C1CCN(C(=O)COC(=O)c2cc([N+](=O)[O-])ccc2N2CCOCC2)CC1
→ i	-12%
19. O=C(O)CCCNC(=O)/C(=C\c1ccccc1F)NC(=O)c1ccccc1
→ -5%	-14%
20. O=C1NN=C(c2ccccc2)CC1c1ccc(Cl)cc1Cl (centres undefined)
→ -24%	-18%
21. CCOc1ccc2c(c1)c(=O)c(C(=O)c1ccccc1)cn2Cc1ccccc1F
→ -7%[7.34 µM]	-3%[7.34 µM]
22. O=C(O)c1cc([N+](=O)[O-])ccc1NCc1ccccc1
→ -15%	-9%
23. O=C(Nc1c(-c2ccc(Cl)cc2)[nH][nH]c1=O)c1ccc(Br)cc1
→ 3%	9%
24. O=C(CCC(=O)N1CCSc2ccccc21)NCCc1ccccc1
→ 0%	-2%
25. O=C(COC(=O)c1cccs1)c1ccc2c(c1)OCCO2
→ ?	-14%
26. COc1cc(CNCc2cc3cc(C)ccc3nc2-c2ccc(F)cc2)cc(OC)c1OC
→ -5%	2%
27. Cc1ccc(S(=O)(=O)c2c(N)n(CC3CCOC3)c3nc4ccccc4nc23)cc1 (centres undefined)
→ -22%	?
28. O=C(O)c1cc2c(N3CCC(Cc4ccccc4)CC3)ncnc2s1
→ -25%	-5%
29. CCN(CC(=O)Nc1ccc(S(=O)(=O)N2CCCC2)cc1)CC(=O)Nc1cccc(OC)c1
→ i	5%
30. O=C(NC1CCCCCC1)c1ccc(CS(=O)Cc2ccccc2Cl)o1 (centres undefined)
→ i	-14%

# Complete entries as entered above:
# O=C(CCC(=O)N1CCSc2ccccc21)NCCc1ccccc1 is listed with Vaccinia mCherry = 0%; Vaccinia Venus = -2%
# Cc1ccc(S(=O)(=O)c2c(N)n(CC3CCOC3)c3nc4ccccc4nc23)cc1 (centres undefined) is listed with Vaccinia mCherry = -22%; Vaccinia Venus = ?

# Continuation:
# Below each compound – Vaccinia mCherry	Vaccinia Venus
31. O=C1SC(Nc2ccc(Cl)cc2)C(=O)N1Cc1ccccc1 (centres undefined)
→ i	-5%
32. CC(C)C[C@H](NC(=O)c1nc[nH]c1C(=O)N1CCN(c2ccccc2)CC1)C(=O)OCc1ccccc1
→ -3%	-3%
33. O=C1CC(N2CCCN(C3CC(=O)N(c4ccc(F)cc4)C3=O)CC2)C(=O)N1c1ccc(F)cc1 (centres undefined)
→ ·	?
34. CCOc1ccccc1N(CC(=O)N1CCc2ccccc2C1)S(=O)(=O)c1ccccc1
→ -10%	-19%
35. CCOC(=O)CNC(=O)c1c2c(nc3ccccc13)CCCC2
→ 3%	-7%
36. O=C(O)c1coc2ccccc12
→ ·	-21%
37. CCOC(=O)c1cc(-c2ccc(C)cc2)n(CCC(=O)N2CCN(c3ccccn3)CC2)c1C
→ ?	?
38. O=C(CCCC(=O)N1CCc2ccccc21)N1CCc2ccccc21
→ -14%	-8%
39. Cc1ccc(C(=O)Nc2ccc(C(=O)O)cc2)cc1S(=O)(=O)NCc1ccccc1
→ -1%	181%[activator]
40. O=C(c1cc(-c2ccncc2)nc2ccccc12)N1CCCC(C(F)(F)F)C1 (centres undefined)
→ -15%	-9%
41. COc1ccc(S(=O)(=O)N2CCC(Oc3cccc(C(F)(F)F)c3)CC2)cc1OC
→ -10%	-11%
42. C=C(C)C(=O)OCC(O)COc1ccc(C(C)(C)c2ccc(OCC(O)COC(=O)C(=C)C)cc2)cc1 (centres undefined)
→ ?	?
43. O=C(N/N=C/c1ccnc2ccccc12)c1ccccc1O
→ -12%	-18%
44. COc1ccc(CNC(=O)Nc2nnc([C@@H]3C[C@H](O)[C@@H](CO)O3)s2)cc1
→ -6%	-10%
45. S=C1NCN(Cc2cccnc2)CN1
→ -11%	-4%
46. CCCCN(Cc1ccccc1)C(=O)c1cnc2n(c1=O)CCS2
→ -9%	-1%
47. CCCCCC(=O)N1C[C@H](n2cc(-c3ccc(F)cc3)nn2)[C@@H](O)C[C@@H]1c1ccc(OC)cc1
→ 1%	-14%
48. COc1ccc(C)cc1S(=O)(=O)N1CCN(c2cccc(C(F)(F)F)c2)CC1
→ -29%	-20%
49. O=C(c1ccccc1)c1c[nH]c(C(=O)NCc2cccnc2)c1
→ ·	-12%
50. O=c1c2oc3ccccc3c2n(Cc2ccccc2F)c(=O)n1Cc1ccc2c(c1)OCO2
→ -6%	-10%
51. CC1CCCCN1Cc1c(O)ccc2c(=O)c(-c3cccc(Cl)c3)c(C(F)(F)F)oc12 (centres undefined)
→ -2%	-3%
52. CC(C)CCn1c(N)c(S(=O)(=O)c2cccs2)c2nc3ccccc3nc21
→ ?	?
53. CCCN(CC(=O)Nc1ccccc1C)C(=O)c1ccc(N2CCCCC2)c([N+](=O)[O-])c1
→ -11%	-21%
54. Cc1nn(C2CCS(=O)(=O)C2)c2nc(C3CC3)cc(C(=O)Nc3ccc(C(N)=O)cc3)c12 (centres undefined)
→ -11%	-7%
55. COc1cccc(NC(=O)[C@@H]2CCC(=O)N2C2OC(=O)c3ccccc32)c1 (some centres undefined)
→ -28%	-20%
56. Cc1ccc(S(=O)(=O)N2C[C@H]3N(C(=O)OC(C)C)N(C(=O)OC(C)C)C[C@H](OC(=O)NCc4ccco4)[C@@]3(O)C2)cc1
→ -5%	-13%
57. COc1ccc(CNC(=O)CN(C)S(=O)(=O)c2ccccc2)cc1
→ 0%	4%
58. CCOC(=O)C1=C(c2ccccc2)NC(SCC(=O)NC2CCCCC2)=C(C#N)C1c1ccco1 (centres undefined)
→ -13%	-10%
59. CNC(=S)Nc1ccc([N+](=O)[O-])cc1C
→ -11%	-7%
60. Cc1ccccc1C(=O)N1CCC(C(=O)NC2CCCC2)CC1
→ -18%	-3%
61. CN1CCN(NC(=O)COc2cccc(C(F)(F)F)c2)CC1
→ -2%	-13%
62. CCCCc1nc2ccccc2c(=O)n1-c1ccccc1O
→ ·	-3%
63. O=C(O)COc1cccc(NC(=O)C2CCCO2)c1 (centres undefined)
→ -16%[1.46 µM]	-6%
64. CCOc1ccc(-c2nn(-c3ccccc3)cc2/C=C(\C#N)S(=O)(=O)c2ccccc2)cc1C
→ ·	-24%
65. Cc1cc2c(cc1S(=O)(=O)N1CCc3ccccc31)NC(=O)CO2
→ -21%	?
66. COCCC(=O)N1CCC(Oc2ccc(C(=O)NC3Cc4ccccc4C3)cc2)CC1
→ -6%	-18%
67. COC(=O)C1=CN(c2ccc(OC)cc2)C=C(C(=O)OC)C1c1ccc(C)c([N+](=O)[O-])c1
→ -2%	-19%
68. CSc1nc(-c2ccccc2Cl)nc2c1Cc1c(CO)cnc(C)c1O2
→ -19%	-18%
69. CCCCNC(=O)NNC(=O)COc1cc(C)cc(C)c1
→ -17%	-3%
70. CC(C)CC(NC(=O)COc1ccccc1)C(=O)O (centres undefined)
→ i	-4%
71. CCOc1cc(/C=N/NC(=O)c2ccncc2)ccc1OC(=O)c1ccc([N+](=O)[O-])cc1
→ ·	-11%
72. CC(=O)N1CCN(C(=O)COc2ccc(Br)cc2)CC1
→ ·	-12%
73. N/C(Cc1ccc([N+](=O)[O-])cc1)=N\OC(=O)Cc1ccc(Cl)cc1
→ -19%	-15%
74. CS(=O)(=O)NCCSc1nnnn1-c1ccccc1
→ ·	-8%
75. Cc1ccc(C)c(N(CC(=O)NC2CCCCC2)C(=O)c2csnn2)c1
→ 0%	0%
76. O=[N+]([O-])c1cccnc1C1OCCO1
→ i	-7%
77. Cc1cnc2ccccc2c1C
→ -14%	-4%
78. CCC(C)NCCCOc1c(C)cc(C)cc1Br (centres undefined)
→ -10%	-25%
79. CCOc1ccc(C(=O)Nc2ccccc2OC(F)F)cc1
→ i	5%
80. O=C(NCCNc1ccc([N+](=O)[O-])cc1C(F)(F)F)c1ccc(F)cc1
→ -1%	-4%
81. COc1ccc(S(=O)(=O)N2CCSC2)cc1C
→ -12%	-5%
82. Cc1ccccc1Nc1nc(N)c2ccccc2n1
→ i	-21%
83. Cc1ccccc1-c1noc(CNC(=O)c2ccco2)n1
→ 40%[activator]	-10%
84. CC1CCC(NC(=O)C(=O)Nc2ccc3c(c2)OCO3)CC1 (centres undefined)
→ i	-8%
85. O=C(CCC(=O)N1CCN(c2ccccn2)CC1)c1ccc(Cl)s1
→ -10%	6%
86. CCOC(=O)[C@H]1[C@H]2COc3ccc(Br)cc3[C@@H]2N2C(=O)CN(Cc3ccc(OC)cc3)C(=O)[C@@]12C
→ i	-16%
87. CCOc1ccccc1OCCCC(=O)Nc1cc(S(=O)(=O)N2CCOCC2)ccc1OC
→ -6%	11%
88. Cc1sc2ncnc(N=Nc3c(O)[nH]c4ccccc34)c2c1C
→ -4%	-8%
89. Cc1cccc(C)c1OCc1cc(=O)n2c3c(sc2n1)CCCC3
→ 1%	-13%
90. O=C(CSc1nc2ccccc2[nH]1)NCCN1CCCCC1
→ ·	-8%

# New compounds follow.
# Below each compound – Vaccinia mCherry	Vaccinia Venus
91. CCOC(=O)c1ccc(NC(=O)CC2SC3=NCCN3C2=O)cc1 (centres undefined)
→ -13%	-5%
92. Oc1c(N=Nc2ccc(F)cc2)ccc2ccccc12
→ ?	8%
93. CN(CCc1cnn(C)c1)Cc1nc(Cc2ccccc2)no1
→ -6%	-19%
94. CCCN(S(=O)(=O)c1ccc(OCC)cc1)S(=O)(=O)c1cccs1
→ -11%	-17%
95. Nc1cc(=O)[nH]c(SCCNS(=O)(=O)c2ccccc2)n1
→ -8%	-8%
96. O=C(NCCc1ccc(F)cc1)c1ccc(S(=O)(=O)N2CCCCC2)cc1
→ i	-22%
97. CCOC(=O)Cn1cnc2c(cnn2-c2ccc(Cl)cc2)c1=O
→ ·	-20%
98. COc1c(CC=C(C)C)c2c(c3oc(=O)c(-c4ccc(O)cc4)c(O)c13)C=CC(C)(C)O2
→ i	-24%
99. CC(C)Oc1ccc(CN2CCC2(C)C(=O)Nc2ccc(Cl)c(Cl)c2)cc1 (centres undefined)
→ -25%	20%
100. CCC(=O)OCCNc1cc(SCCC(=O)OC)c2nonc2c1[N+](=O)[O-]
→ 30%&-23%	-13%&-6%
101. Cc1ccc[n+](CC2OCc3ccccc3CO2)c1
→ i	-15%
102. S=c1[nH]nc(-c2cc(-c3ccco3)[nH]n2)n1-c1ccccc1
→ -4%	-12%
103. CCOC(=O)[C@]12CCCC=C1N(Cc1cccc3ccccc13)C(=O)[C@H](CC(=O)NCc1cccs1)C2
→ -6%	-3%
104. Cc1ccccc1CS(=O)(=O)CCC(=O)N1CCN(c2ccc(N3CCOCC3)nn2)CC1
→ -5%	-4%
105. CCOc1ccc(-c2nn(-c3ccccc3)cc2/C=C2\SC(N)=NC2=O)cc1C
→ ·	-8%
106. CC(=O)N=c1sc2ccccc2n1C
→ -14%	1%
107. Cn1cnnc1SCc1ccccc1[N+](=O)[O-]
→ i	-15%
108. S=C(NNc1ccc2ccccc2c1)NC1CCCCC1
→ -14%	-24%
109. O=C(CSc1cc(Cl)ccc1Cl)NCC(=O)Nc1ccc(F)c(F)c1F
→ -5%	-6%
110. Cc1cc(NC(=O)c2cc([N+](=O)[O-])cc([N+](=O)[O-])c2C)no1
→ -26%	-10%
111. COC1CCC(OC2CC(C3(C)CCC4(CC(O)C(C)C(C(C)/C=C(\C)C(=O)C(C)CC(C)C(=O)O)O4)O3)OC3(OC(C4OC(O)(CO)C(C)CC4C)CC3C)C2C)OC1C (centres undefined)
→ 6.3µM*	7.9µM*
112. CC(C)Nc1nc(N(c2ccccc2)c2ccccc2)nc(-n2ccnc2)n1
→ -7%	-15%
113. Cc1ccc2oc(C(=O)Nc3ccc(S(=O)(=O)N4CCCCC4C)cc3)cc(=O)c2c1 (centres undefined)
→ -5%	-10%
114. CC(Oc1ccccc1)C(=O)N1CCC2(CC1)Oc1ccc(F)cc1C(=O)C21CC(c2ccccc2)=NO1 (centres undefined)
→ -9%	-25%
